HIV Env fusion – inhibitors of HIV-1 Env-driven cell-cell fusion, primary screen, HeLa-JRFL effector, CEM21 target cells, luciferase | inhibition, % at 12.3 µM | actives 1.1% (n = 360,000);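 active means mean replicate inhibition score of at least 50 and every replicate individually at or above 50; inconclusive means only one of the two criteria met; inactive means mean below 50 and not all replicates reaching 50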;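 further: 0% = plate neutral controls and 100% = maraviroc near 300 nM; one replicate is shown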
eIF4H inh – human eIF4H binding inhibitors, primary screen, translation initiation inhibitor project, biochemical, uHTS, fluorescence polarization. Eukaryotic translation initiation factor 4H (Homo sapiens), Q15056. eIF4H fluorescence polarization binding assay. inhibition, % at 35 µM. actives 0.94% (n = 290,000). AID 2012, 2009;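 active means 50% or more with normal probe brightness, or confirmed in later tests; inconclusive means above 50% with abnormal brightness, or retests that disagree; inactive means below 50% or failed in later tests; about a fifth of its hits are not listed in these tables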;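 further: calls also rest on retests at 20 µM and on dose response follow-up; 0% = protein and probe with vehicle and 100% = probe without protein; strong numbers were not always called active; many hits fall short of the cut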
PABP polyA inh – PABP poly(A) RNA binding inhibitors, primary screen, biochemical, fluorescence polarization, uHTS | inhibition, % at 35 µM | actives 1% (n = 290,000) | AID 2014, 2009;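 active means 50% or more with normal probe brightness, or confirmed in later tests; inconclusive means above 50% with abnormal brightness, or retests that disagree; inactive means below 50% or failed in later tests; about a fifth of its hits are not listed in these tables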;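 further: calls also rest on retests at 20 µM and on dose response follow-up; controls were probe without protein and protein plus probe with vehicle; some compounds called inactive have numbers as strong as hits; many hits fall short of the cut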
UUG fidelity – modulators of yeast start codon fidelity, primary screen, whole organism, S. cerevisiae, single point, plate reader. S. cerevisiae UUG-firefly luciferase reporter, luminescence/redox ratio. activity score, % at 18.7 µM. actives 0.13% (n = 350,000);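 active means replicate mean at a twofold rise or more, about +100% in these data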;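 further: firefly luciferase made from a UUG start codon reports start codon fidelity; reporter light over untreated wells divided by growth signal over untreated wells; some hits fall short of that in this replicate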
MT1-MMP act inh – blockers of MT1-MMP proenzyme processing, primary screen, HT1080 RFP-PRO-GFP cells, GFP/RFP fluorescence; GFP/RFP ratio fluorescence, overnight; percent of plate control window, DMSO zero; actives 0.061% (n = 360,000); AID 651647, 2012; Matrix metalloproteinase-14 (Homo sapiens), P50281; GFP/RFP ratio change, % at 20 µM;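 active means GFP/RFP ratio change of at least 30% with cell ATP level not reduced by more than half and red fluorescence within 50% of control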; further: strong numbers were not always called active
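Assay system: HT1080 RFP-PRO-GFP cells | Dosing: 20 µM single dose, 1% DMSO | Incubation: Cells overnight before dosing, compound overnight, 37 °C, 5% CO2 | Evaluation: GFP/RFP fluorescence ratio | Control set: DMSO-only wells and HT1080 RFP-L50D-GFP cell wells as references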
CSC inhib – cancer stem cell viability inhibitors, primary screen, luminescence; AID 2717, 2010; inhibition, % at 7.5 µM; cancer stem cell-like cells viability; actives 1.1% (n = 300,000);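 active means mean at 75% or more and at least half the replicates too; inconclusive means mean and replicates disagree; tested in HMLE shEcad cells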;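 further: 0% = median of negative and 100% = median of positive control wells; the first replicate is given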
Rce1 inhib – yeast Rce1p protease inhibitors, primary screen, biochemical, fluorescence, cell-free homogeneous; actives 0.27% (n = 290,000); CAAX prenyl protease 2 (Saccharomyces cerevisiae (strain ATCC 204508 / S288c)), Q03530; yeast membranes, quenched prenylated peptide cleavage fluorescence; calls only;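 active means fall in fluorescence gain of 50% or more versus controls, with final raw signal at or below 3038400; inconclusive means same 50% fall but final raw signal above 3038400; inactive means fall in fluorescence gain under 50%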;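 further: plate controls were neutral control wells for no effect and wells lacking membranes for full effect; tested at 10 µM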
Target sequence (Q03530 whole entry, looked up): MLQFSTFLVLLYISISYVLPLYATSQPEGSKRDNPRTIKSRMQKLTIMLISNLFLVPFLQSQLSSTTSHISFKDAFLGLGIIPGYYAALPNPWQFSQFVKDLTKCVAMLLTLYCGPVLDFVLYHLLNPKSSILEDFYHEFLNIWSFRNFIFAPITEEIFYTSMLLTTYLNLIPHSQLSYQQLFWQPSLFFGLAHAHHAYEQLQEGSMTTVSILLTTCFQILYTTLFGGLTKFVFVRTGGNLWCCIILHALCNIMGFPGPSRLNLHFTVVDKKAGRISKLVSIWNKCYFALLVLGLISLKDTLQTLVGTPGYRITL
eIF4H inh retest – further read-out of eIF4H inh, marked with its call; inhibition, %; compound at 20 µM; confirmation average;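 mean of two retest wells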
PABP polyA inh retest – also measured in PABP polyA inh; calls as there; inhibition, %; compound at 20 µM; confirmation repeats;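 mean of two retest wells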
MT1-MMP act inh RFP – recorded beside MT1-MMP act inh, whose call it bears; RFP signal change, %; measured here: RFP expression control read;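 0 = vehicle wells; hits needed this value within 50% of zero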
* hit, by the source's call; i = inactive; ? = inconclusive; . = no result given. Only part of the results is shown; the hit share may differ from the screen's.

SMILES	HIV Env fusion	eIF4H inh	PABP polyA inh	UUG fidelity	MT1-MMP act inh	MT1-MMP act inh RFP	CSC inhib	Rce1 inhib	others
O=C(Nc1ccc(CN2CCCCC2)cc1)c1ccc2c(c1)OCO2	22	-6	5	-9	0	-1	-3	i
O=C(CN1CCCCC1)Nc1c2c(nc3ccccc13)N(c1ccccc1)CC2	10	-14	1	.	-3	-3	-7	i
COCCNc1nc(CSc2ccccc2)nc2sc(C)c(C)c12	30	0	1	.	-5	-4	.	i
CC(=O)c1cccc(N(CC(=O)NC2CCCCC2)C(=O)CNC(=O)c2cccs2)c1	-5	-3	8	-10	-1	1	.	i
Cc1cc(=O)c2cc(Br)ccc2n1CC(=O)NCc1ccccc1	-12	-3	15	.	-3	-8	1	i
COc1ccc(Cl)cc1C(=O)NC(=S)Nc1cc(-c2nc3ccccc3[nH]2)ccc1C	.	-4	2	-17	-4	-5	31	i
Cc1cc2oc(=O)sc2cc1NS(=O)(=O)c1ccccc1	21	0	-8	-10	1	4	-4	i
N#CC1(c2ccccc2)CCCN1C(=O)c1ccc(Br)o1 (centres undefined)	.	-1	-5	-7	-6	1	-5	i
NC(=O)C1(N2CCCCC2)CCN(Cc2ccc(F)cc2)CC1	.	6	-6	.	5	5	-13	i
C=CCn1c(COc2ccccc2)nnc1SCC(=O)NCC(=O)OCC	.	12	-3	-8	4	1	1	i
CCOC(=O)c1ccc(NC(=O)C2CCC(CNc3c(N4CCOCC4)c(=O)c3=O)CC2)cc1 (centres undefined)	4	6	-7	-3	-11	-2	-5	i
C#CCOC(=O)Nc1ccc(OCC(F)(F)F)nc1	8	-2	-3	-12	3	0	-4	i
CNC(=O)CN(C)S(=O)(=O)c1ccc(OC)c(Cl)c1	.	-3	-5	-17	-4	3	0	i
Cc1cc(C)n2ncc(-c3cccc(Br)c3)c2n1	0	0	-8	-12	-1	-3	22	i
CCN(CC)S(=O)(=O)c1ccc(-c2nnco2)cc1	.	10	20	-13	-3	0	-1	i
CC(=O)N1CCc2c(sc(NC(=O)c3ccc(S(=O)(=O)N(C)C)cc3)c2C#N)C1	-1	.	.	1	-2	1	-8	i
Cc1cccc(-c2nnc(N)s2)c1	.	-3	2	-30	-2	1	2	i
NS(=O)(=O)c1cccc(NC(=O)CN2CCCc3ccccc32)c1	14	30	8	3	-1	2	-7	i
Cc1cc(Cl)ccc1OCc1nc(-c2ccncc2)no1	-41	-6	6	.	.	.	0	.
O=C(COC(=O)CC(c1ccccc1)c1ccccc1)Nc1c(F)cccc1F	20	7	6	.	.	.	8	i

Entries shown so far that have an aryl thioether with sulfur outside any ring, in the order listed:
SMILES	HIV Env fusion	eIF4H inh	PABP polyA inh	UUG fidelity	MT1-MMP act inh	MT1-MMP act inh RFP	CSC inhib	Rce1 inhib	others
COCCNc1nc(CSc2ccccc2)nc2sc(C)c(C)c12	30	0	1	.	-5	-4	.	i
C=CCn1c(COc2ccccc2)nnc1SCC(=O)NCC(=O)OCC	.	12	-3	-8	4	1	1	i

The list goes on:
SMILES	HIV Env fusion	eIF4H inh	PABP polyA inh	UUG fidelity	MT1-MMP act inh	MT1-MMP act inh RFP	CSC inhib	Rce1 inhib	others
CCCS(=O)(=O)N1CCC(C(=O)NC2CCCC(C)C2C)CC1 (centres undefined)	.	-12	-6	-10	-3	0	4	i
O=C(CN(Cc1ccco1)C(=O)c1ccc(Cl)cc1)Nc1c(Cl)cc(Cl)cc1Cl	-44	2	-2	.	-1	0	13	i
Cc1ccc(S(=O)(=O)N2CCC(N3CCN(C)CC3)CC2)cc1Cl	3	-4	0	-5	.	.	63	i
O=C(c1ccccc1)N1CCSc2sccc2C1=O	66*	-11	-10	-19	2	1	.	i
O=C(CNC(=O)c1sc2ccccc2c1Cl)NCc1ccccc1	-6	-13	-3	-17	-2	0	24	i
COC(=O)CC1C(=O)NC2CCCCC2N1C(=O)CCl (centres undefined)	22	-2	9	-14	-1	-1	-16	i
O=C(Nc1nc2ccc(F)cc2s1)c1ccc(N2CCCC2=O)cc1	-44	.	.	-20	7	-2	-7	i
COc1ccc(-c2cc(C(=O)Nc3cccc(S(=O)(=O)NCc4ccco4)c3)c3ccccc3n2)cc1OC	-8	-12	-10	.	-14	-9	.	i
CCc1cc2cc(C)cc(C)c2[nH]c1=S	1	-2	0	.	-6	-10	.	i
CC(CNC(=O)c1ccc(C(C)(C)C)cc1)CN(C)C (centres undefined)	-2	-2	19	-2	1	4	12	i
Cc1ccccc1N1CCN(C2CCCN(C(=O)c3cc(CC(C)C)nn3C)C2)CC1 (centres undefined)	13	-12	5	8	2	-9	0	i
CCCCC(CC)C(=O)NCCc1ccc(S(N)(=O)=O)cc1 (centres undefined)	3	4	0	-22	2	4	.	i
Cc1csc(NC(=O)c2cccc(S(=O)(=O)N3CCN(C)CC3)c2)n1	5	5	?	.	2	-1	-12	i
CCCCNC(=O)CCn1nc(-c2ccccc2)ccc1=O	.	-9	-4	-2	1	2	-7	i
CCN(CC)CCNC(=O)c1cc(-c2ccc(Br)s2)nc2ccccc12	-18	-8	-15	-23	-2	-1	24	i
CC(C)CCNC(=O)CN(Cc1ccccc1Cl)C(=O)CCC(=O)Nc1ccccn1	-2	-3	-4	-4	0	2	0	i
COc1ccc(C2SCCN2C(=S)Nc2ccc(Cl)cc2)cc1 (centres undefined)	4	-6	12	-26	2	1	.	i
O=C(CN1CCN(S(=O)(=O)c2ccc(Cl)cc2)CC1)NCc1cccs1	.	.	.	.	-3	0	-5	i
CCOC(=O)c1ccc(COC(=O)c2cc(=O)[nH]c3ccccc23)o1	.	6	5	.	0	0	11	i
O=S(=O)(c1ccc(Cl)c(NC(=S)Nc2cccc(O)c2)c1)N1CCOCC1	-6	?	-8	-11	.	.	-3	i
CN(C(=O)Cn1nnc(-c2cccc(C(F)(F)F)c2)n1)C1CCCCC1	.	-8	-7	.	0	2	2	i
O=S(=O)(NCCSc1ccccc1)c1ccc2c(c1)OCCO2	-195	-8	-7	-14	1	2	17	i
Cc1ccc2oc(C(=O)N3CCC(N4CCSCC4)CC3)c(C)c2c1	-8	6	0	-17	-1	3	57	i
O=[N+]([O-])c1ccc(F)cc1F	.	.	.	-21	-1	4	10	.
CCOc1ccc(NC(=O)C(CC(=O)O)Cc2ccc(Br)cc2)cc1 (centres undefined)	0	0	1	-11	1	3	-8	i
Cc1ccc(-c2csc(NC(=O)c3cccc([N+](=O)[O-])c3C(=O)O)n2)cc1	6	-9	-7	-8	0	3	-12	i
CC(C)Cc1ccc(S(=O)(=O)NCC2CCCO2)cc1 (centres undefined)	11	-7	-7	-8	5	-3	-2	i
Cc1ccc(Cc2c(C)c(C#N)c3[nH]c4ccccc4n3c2=O)cc1	4	3	3	-18	-8	-33	32	i
O=C(O)c1c(Cl)nc2ccccn12	12	-9	-8	.	-1	1	-8	i
CC(C)c1nc2sc3c(SCC(=O)NCc4ccco4)ncnc3c2c2c1CCC2	.	14*	52	-15	0	1	26	i	eIF4H inh retest=71*;PABP polyA inh retest=40
O=C(/C=C/c1ccccc1)Nc1nc(-c2ccncc2)cs1	-3	-8	-1	594*	0	-21	34	.
CSc1ccc(S(=O)(=O)N2CC(=O)Nc3ccccc32)cc1	4	-4	3	-1	0	0	-5	i
CNc1nc2c(c(=O)[nH]c(=O)n2C)n1CCOC	.	-7	-6	.	.	.	.	i
CCOC(=O)Cn1cc(C(=O)C2CC2)c2ccccc21	-17	2	-2	3	5	3	-17	i
CCOC(=O)C(/C=N/c1cc(C)nn1-c1ccccc1)=C(\C)O	-96	-4	5	-9	-2	4	-9	i
Cc1cc2c(cc(C(=O)NCc3cccnc3)n2Cc2ccc(Cl)cc2)o1	?	14	13	-6	0	0	-10	i
CCOCCCNC(=O)CN(Cc1ccc(Cl)cc1)S(C)(=O)=O	.	0	-2	-7	-2	2	.	i
Cc1ccc(C)c(N=Cc2cc3c(cc2[N+](=O)[O-])OCO3)c1	9	72	2	.	-4	5	-11	i	eIF4H inh retest=1;PABP polyA inh retest=2
O=C(CCNC(=O)c1ccccc1Cl)Nc1ccncc1	.	-10	3	-9	5	5	-6	i
Cc1nc2cc(NC(=O)NCc3ccc4c(c3)OCO4)ccc2o1	10	-1	-5	-11	3	0	2	i
CCC1Oc2ccccc2N(CC(=O)NCCCN2CCN(c3ccc(OC)cc3)CC2)C1=O (centres undefined)	3	0	-11	-19	2	-2	-7	i
COC(=O)c1ccc(CSc2nc3ccccc3c(=O)n2C)o1	-1	-3	2	-5	1	-1	7	i
CCOC(=O)c1ccc(NC(=O)NS(=O)(=O)c2ccc(C)cc2)cc1	.	-5	-9	-4	-4	-3	-11	i
COc1ccccc1OCc1cc(C(=O)N(C)CCC2CCOCC2)no1	-70	.	.	21	-6	0	.	.
O=C(NCC1COCCO1)C1CCN(S(=O)(=O)c2ccccc2)CC1 (centres undefined)	.	-11	10	11	2	1	.	i
O=C(COC(=O)c1ccc(Cl)c(S(=O)(=O)N2CCCCC2)c1)NCCc1ccccc1	-4	.	.	1	-2	0	.	.
S=C(NCCCN1CCOCC1)N1CCN(c2cccc(Cl)c2)CC1	20	5	0	-9	2	-2	.	i
C/C(=N/NC(=O)CNC(=O)c1cccnc1)c1ccc(Cl)cc1	7	2	-1	-13	-3	0	-3	i
COC(=O)Nc1ccc(S(=O)(=O)Nc2cc(OC)nc(OC)n2)cc1	-12	-8	1	-8	1	2	8	i
Cc1ccccc1-c1csc(C(O)c2ccccc2)n1 (centres undefined)	-11	.	.	-14	1	-1	.	.
O=C(CSc1ccc(Br)cc1)NCC(c1ccco1)N1CCCCC1 (centres undefined)	.	.	.	.	0	3	-4	i
O=c1[nH]cnc2c1ncn2C1OC(CO)C(O)C1O (centres undefined)	12	.	.	-21	-6	-1	.	.
CC(C)[C@H](NC(=O)c1ccc(Cl)c([N+](=O)[O-])c1)C(=O)NCc1ccc(F)cc1	14	-2	-8	-14	-8	-2	-3	i
O=C(COc1nc2ccccc2nc1N1CCOCC1)NC1CCCCC1	-1	2	-2	.	0	4	-6	i
Cn1c(=O)c2c(nc(/C=C/c3cccc(Cl)c3)n2C)n(C)c1=O	4	.	.	.	.	.	-3	?
O=C(NCc1ccc(F)cc1)c1cc(C(=O)C2CC2)c[nH]1	2	0	9	-10	6	0	-19	i
CCOC(=O)CC1C(=O)NCCN1C(=O)c1ccc(C)cc1 (centres undefined)	6	-4	3	-2	-1	1	-12	i
N#Cc1ccc(C(=O)Nc2cc(C3CC3)nn2-c2ccccc2)cc1	-4	.	.	2	-2	-2	-2	i
COCCNC(=O)C1CCCN(C(=O)c2oc3ccccc3c2C)CC1 (centres undefined)	-16	.	.	-13	-1	0	.	.
CCCOC(=O)c1ccc(NC(=O)c2ccc(Br)o2)cc1	10	-16	0	.	0	-5	10	i
Nc1c(C(=O)NCc2cccnc2)sc(=S)n1-c1ccccc1	8	-4	3	-21	.	.	5	i
